# Screens from PubChem BioAssay.
# Six1-Eya2 inh = inhibitors of human Six1/Eya2 interaction | AlphaScreen GST-Six1/His-Eya2 binding, biochemical; stronger effect = lower value; control for the full effect not named in the record | Q15475+O00167 | actives 0.56% (n = 360,000) | activity change, % (concentration not given with the values); in the data active = activity change below about -65%; inconclusive = about -30% to -65%; inactive = above about -30%; further: on the % scale 0 is the no-effect control and ±100 the full control effect
# Target sequence (O00167 whole entry, looked up): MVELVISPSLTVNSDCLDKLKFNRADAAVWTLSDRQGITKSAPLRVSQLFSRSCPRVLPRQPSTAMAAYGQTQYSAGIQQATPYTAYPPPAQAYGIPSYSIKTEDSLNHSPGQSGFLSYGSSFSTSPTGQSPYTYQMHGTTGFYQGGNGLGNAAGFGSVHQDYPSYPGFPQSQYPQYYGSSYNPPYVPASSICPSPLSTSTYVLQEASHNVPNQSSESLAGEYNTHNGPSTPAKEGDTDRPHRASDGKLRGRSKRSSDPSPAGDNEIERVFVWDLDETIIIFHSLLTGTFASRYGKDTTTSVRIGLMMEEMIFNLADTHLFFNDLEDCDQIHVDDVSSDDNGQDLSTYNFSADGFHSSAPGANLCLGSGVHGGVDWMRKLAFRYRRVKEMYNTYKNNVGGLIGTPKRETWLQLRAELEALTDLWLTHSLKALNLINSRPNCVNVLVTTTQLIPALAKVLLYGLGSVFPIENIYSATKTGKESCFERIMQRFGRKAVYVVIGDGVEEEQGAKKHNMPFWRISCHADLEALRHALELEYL
# Target sequence (Q15475 whole entry, looked up): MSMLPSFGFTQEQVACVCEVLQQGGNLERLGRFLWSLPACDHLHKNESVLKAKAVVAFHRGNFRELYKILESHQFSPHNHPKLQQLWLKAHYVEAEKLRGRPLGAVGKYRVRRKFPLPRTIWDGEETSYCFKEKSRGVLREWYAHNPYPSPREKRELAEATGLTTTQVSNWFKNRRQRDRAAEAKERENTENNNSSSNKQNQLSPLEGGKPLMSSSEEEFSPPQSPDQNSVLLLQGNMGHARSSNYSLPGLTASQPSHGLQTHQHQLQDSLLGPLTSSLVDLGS
#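 GST-Six1 + His-Eya2 (5X stock: 250/500 nM); Tris pH 8.0, 300 mM NaCl, 0.05% BSA, 0.02% Tween 20; GSH donor/Ni acceptor beads; 1 h 37 °C dark; AlphaScreen readout.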
# gsp antag = antagonizes gsp, the McCune-Albright syndrome mutation; gsp-mutant cells, cAMP HTRF, 30 min; control for the full effect not named in the record; Potency, µM (series often up to 76.9 µM), inactives show at the highest dose activity change, negative = inhibition, most hits filed as inhibitors; actives 0.4% (n = 340,000); active = falling curve of any shape with a large fitted effect; inconclusive = falling curve, mostly with a smaller effect; inactive = flat or rising curve; cell line not stated here;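 further: intracellular cAMP measured with PDE inhibitor Ro 20-1724 present during compound exposure; potency means the concentration at half of the fitted maximal effect; on the % scale 0 is the no-effect control and ±100 the full control effect; nearly all actives have a fitted effect of over 65% in size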
#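 Measurement of cellular cAMP by homogeneous time-resolved fluorescence following a 30 min compound exposure at 37C. The PDE inhibitor […] was present throughout; the assay buffer was DPBS with 0.05% BSA and 0.005% Tween 20.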
# D2 agonist = human D2 receptor agonism in beta-arrestin assay; P14416; DiscoveRx PathHunter D2 beta-arrestin, luminescence, 90 min; 100% = 57 uM dopamine signal; activation, % (test concentration not listed); actives 0.084% (n = 360,000); AID 624465; in the data active = activation above about 40%; inconclusive = about 15% to 40%; inactive = below about 15%; further: compound concentration not given in the record; the text of the record calls up to 30% inactive
#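 DiscoveRx PathHunter D2 beta-arrestin cells (2,100/well) attached overnight, then compound-stimulated 90 min at 37 C in HBSS/10 mM HEPES/0.1% Tween-20 buffer; beta-galactosidase complementation read by luminescence after 1 h at ambient temperature. Dopamine 57 uM final (EC100) as control.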
# gsp agonist = agonists of gsp mutant (McCune-Albright syndrome) | gsp mutant cells, cAMP HTRF, 30 min; control for the full effect not named in the record | Potency, µM (series often up to 76.9 µM), for inactives: at the highest dose activation (cAMP increase), usual class: activators | AID 624287 | actives 0.13% (n = 340,000); active = well fitted activation curve with a large enough effect; inconclusive = small, poorly fitted or top-dose-only effect, or another doubt; inactive = no such curve, though single readings can be large or run the other way; cell line not stated here;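 further: phosphodiesterase inhibitor Ro 20-1724 added with compounds to block cAMP breakdown; potency means the concentration at half of the fitted maximal effect; nearly all actives have a fitted effect of over 60% in size; about a fifth of the inactives were tested at one dose only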
#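 Cells stably selected in G418 were plated at 2000/well, grown 16-24 hr, then given compounds in DMSO with the PDE inhibitor […] (300 uM solution added) for 30 min at 37C; cAMP was read by HTRF.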
# CtBP-E1A inh = blocks the CtBP interaction with E1A | AID 651724 | AlphaScreen GST-E1A/His-CtBP binding, 1536-well; stronger effect = lower value; control for the full effect not named in the record | activity change, % (concentration not given with the values) | actives 0.49% (n = 340,000); in the data active means activity change below about -65%; inconclusive means about -30% to -65%; inactive means above about -30%; further: on the % scale 0 is the no-effect control and ±100 the full control effect
#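 In 5 uL wells, 23 nL compound meets equimolar GST-E1A and His-CtBP (5X stock 125 nM each) for 2 h, 37 °C. Beads (5X, 50 ug/mL) then 1 h, 37 °C, dark.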
# D2 potentiator = positive allosteric modulators of human D2 dopamine receptor. P14416. DiscoveRx D2 beta-arrestin cells, luminescence, 90 min; 100% = 57 uM dopamine signal. potentiation, % (no concentration beside the values). actives 0.23% (n = 360,000). AID 624464; active = potentiation of 50% or more; inconclusive = 30% to 50%; inactive = 30% or less;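 further: compound concentration not given in the record; tested on top of an EC20 dose of dopamine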
#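 PathHunter beta-arrestin assay in DiscoveRx D2 cells. Compounds were added with an EC20 of dopamine (50 nM final) for 90 min at 37 deg C. Luminescence was read 1 h after detection reagent, with 57 uM dopamine as the EC100 control.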
# The depositor's hits bear a star; u = inconclusive; x = not tested or not shown; [ ] = dose if it differs, or a comment.
SMILES,Six1-Eya2 inh,gsp antag,D2 agonist,gsp agonist,CtBP-E1A inh,D2 potentiator
COc1ccc(N2CCCC2=O)cc1S(=O)(=O)N1CCOCC1,17,x,-0.2,-66%[inhibitor],-12,0
CCC(=O)Nc1ccc(NC(=O)c2ccc3c(c2)OCO3)cc1,-28,5%,-0.4,-28%,u,1
COc1ccc(OC)c(S(=O)(=O)NCCS(=O)(=O)N2CCN(c3ccccc3)CC2)c1,-2,-17%,6.6,-20%,2,0
O=C(CSc1nnc(CNc2ccc(F)cc2)n1-c1ccccc1)N1CCOCC1,24,5%,-2.5,-1%,0,1
c1ccc(-n2nnc3cnccc32)cc1,-23,10%,-4.6,-1%,1,-2
Cc1ccc(SCCC(=O)NCC2CCCO2)cc1 (stereo not drawn),22,24%,-4.4,-45%[inhibitor],30,-14
Cc1ccc(Cl)cc1NC(=O)C1CCCN(S(C)(=O)=O)C1 (stereo not drawn),3,5%,-4.5,-13%,3,-4
Cn1c(=O)c2nc3ccccc3nc2n(C)c1=O,-8,15%,-6.0,22%,-2,-3
O=C(c1ccco1)N1CCN(C2CN(Cc3ccc(F)cc3)S(=O)(=O)C2)CC1 (stereo not drawn),2,x,-4.6,x,-6,-4
O=C(NCCCNC(=O)c1cccnc1)c1ccc(Cl)cc1,-6,3%,-2.4,-16%[15.4 µM],5,-13
COc1ccc(N2CCN(C(=O)CCCC(=O)c3ccccc3)CC2)cc1,-16,-6%,-1.4,8%,-4,-1
Cc1cc(C)nc(NC(=O)CSc2nn(C)c(=S)s2)n1,15,3%,-4.8,-13%,29,-25
CN1CCC(N2CCN(C3CN(Cc4ccc(F)cc4)S(=O)(=O)C3)CC2)CC1 (stereo not drawn),-2,x,-5.7,x,0,2
Cc1cc(=O)n2nc(N3CCCC(C(=O)NCc4ccco4)C3)sc2n1 (stereo not drawn),-3,-8%,1.0,28%,0,-6
CC1CCCN(S(=O)(=O)c2ccc(C(=O)Nc3nnc(-c4ccccc4Cl)o3)cc2)C1 (stereo not drawn),-1,11%,-0.4,-26%,3,-1

# The closing six compounds of the part before come first, to join the parts:
SMILES,Six1-Eya2 inh,gsp antag,D2 agonist,gsp agonist,CtBP-E1A inh,D2 potentiator
O=C(NCCCNC(=O)c1cccnc1)c1ccc(Cl)cc1,-6,3%,-2.4,-16%[15.4 µM],5,-13
COc1ccc(N2CCN(C(=O)CCCC(=O)c3ccccc3)CC2)cc1,-16,-6%,-1.4,8%,-4,-1
Cc1cc(C)nc(NC(=O)CSc2nn(C)c(=S)s2)n1,15,3%,-4.8,-13%,29,-25
CN1CCC(N2CCN(C3CN(Cc4ccc(F)cc4)S(=O)(=O)C3)CC2)CC1 (stereo not drawn),-2,x,-5.7,x,0,2
Cc1cc(=O)n2nc(N3CCCC(C(=O)NCc4ccco4)C3)sc2n1 (stereo not drawn),-3,-8%,1.0,28%,0,-6
CC1CCCN(S(=O)(=O)c2ccc(C(=O)Nc3nnc(-c4ccccc4Cl)o3)cc2)C1 (stereo not drawn),-1,11%,-0.4,-26%,3,-1
COc1cc(CNc2nc3c(C)cc(C)cc3s2)ccc1O,-3,-14%,-0.9,-28%,-2,-3
CC(C)(C)C(=O)NC(=S)Nc1cc(C(F)(F)F)ccc1N1CCOCC1,-13,9%,-3.2,-6%,-1,-28
CCC1SC(CC)C(=O)N(CC(=O)Nc2ccc3c(c2)OCO3)C1=O (stereo not drawn),-6,-11%,-2.3,-18%,x,3
O=C(CN1CCN(S(=O)(=O)c2ccc3c(c2)OCCO3)CC1)Nc1cccc(F)c1,-6,-11%,-5.1,31%[15.4 µM],0,-16
CC(Oc1cccc(Cl)c1)C(=O)Nc1cc(=O)n(C)c(=O)n1C (stereo not drawn),-1,-16%,-0.1,6%,-5,-9
O=C1CC[C@@H](C(=O)N2CSC[C@H]2C(=O)O)N1,-1,0%,1.4,x,9,0
CCCn1nc(NC(=O)COC)c2cc3cc(C)ccc3nc21,13,-13%,5.7,20%,-12,-3
COc1ccccc1C(=O)NCCC(=O)NCc1cccs1,6,12%,-2.4,-17%[15.4 µM],4,-5
COc1ccc(/C=N\NC(=O)c2cc3c(ccc4ccccc43)o2)cc1O,0,6%,u,-3%,20,27
C/[N+]([O-])=C\C1C(=O)CCCC1=O,3,8%,-3.5,10%[15.4 µM],8,-1
N#Cc1cc(O)c(-n2nnc3ccccc32)cc1C#N,-3,-5%,-0.6,u,7,-5
CCCCS(=O)CC(COCc1ccccc1)OC(=O)CSc1nc(C)cc(C)n1 (stereo not drawn),-1,5%,-4.5,-28%,-4,-3
CCOCCCNC(=O)C(c1ccccc1)N(Cc1ccc2c(c1)OCO2)C(=O)c1ccccc1O (stereo not drawn),-3,-7%,-5.7,-3%[15.4 µM],-1,-12
Cc1c(CNCC(C)c2ccccc2)c(C(=O)O)c(C)n1Cc1ccccc1 (stereo not drawn),-1,-20%,-4.5,-7%,-10,-15
Cc1ccccc1OCC(=O)N(Cc1nc(-c2ccccc2)no1)C(C)C,6,-17%,-2.7,-6%,13,-13
CCn1c(-c2cccnc2)n[nH]c1=S,4,10%,0.2,-15%,1,-8
CCN(C(=O)COC(=O)c1ccccc1Nc1ccccc1)c1c(N)n(Cc2ccccc2)c(=O)[nH]c1=O,-5,-11%,8.0,-1%,x,-3
Cc1nn(C(C)C(=O)NCCCN(Cc2ccccc2)C(C)C)c(=O)c2c1sc1ccccc12 (stereo not drawn),2,2%,0.7,-9%,x,-5
CN1CCN(C(=O)CSc2nc(-c3cccs3)cc(-c3cccs3)c2C#N)CC1,22,-6%,0.8,u,19,-22
CCN1CCN(c2cc(C)c3cc(NC(=O)CCC(=O)N4CCN(c5ccccc5OC)CC4)ccc3n2)CC1,4,1%,0.6,17%,-9,-19
C[C@@]12CCC3[C@@](CCC4[C@@]3(C)CCC[C@@]4(C)C(=O)N3CCCCC3)(CC1=O)C2 (stereo partly drawn),1,6%,-0.3,x,9,-14
NCCCC[C@@H]1NC(=O)[C@H](CCC(=O)O)NC(=O)c2cc([N+](=O)[O-])cc(I)c2OCC[C@@H](C(N)=O)NC1=O,-2,7%,-0.5,x,-1,-10
CSc1ccc(C(=O)C2CCCN(C(=O)c3cccc(N4CCOCC4)c3)C2)cc1 (stereo not drawn),-7,-16%,-1.1,u,5,-3
O=C(Oc1cc2oc(=O)c3c(c2cc1Cl)CCCC3)c1cccs1,-8,0%,-0.1,10%,0,-8
COc1cccc(OC)c1C(=O)Nc1ccc(S(=O)(=O)Nc2ncccn2)cc1,3,18%,-5.8,-6%,-8,-3
COC(=O)c1c(NC(=O)CN2CCC3(O)CCCCC3C2c2ccc(OC)cc2OC)sc(C)c1C (stereo not drawn),-16,-17%,-1.5,3%,0,-23
CCCOc1ccc(NC(N)=O)cc1OCCC,5,6%,-1.3,-2%[15.4 µM],0,-5
CCOC(=O)c1c(-c2cc(OC)c(OC)c(OC)c2)csc1NC(=O)c1ccccc1,3,x,2.7,31%,1,-5
COc1ccc(/C=C/C(=O)c2ccc(C)c([N+](=O)[O-])c2)cc1O,6,-5%,-1.8,11%,23,-3
O=C(c1ccc(F)cc1F)N(Cc1ccccn1)Cc1ccco1,-1,2%,-1.9,0%,7,2
CO/N=C/c1ccc(Oc2ccc([N+](=O)[O-])cc2[N+](=O)[O-])c(OC)c1,u,-22%,3.0,7%,-24,u
Cc1[nH]c2ccccc2c1SCc1nnc(SCc2ccccc2)n1C,-11,u,-5.3,-28%[15.4 µM],-21,-22
CCOC(=O)C1CCCN(Cc2cn[nH]c2-c2ccc(F)cc2F)C1 (stereo not drawn),1,5%,-1.7,1%[15.4 µM],3,-5
CC1=C(C)CC(C(=O)Nc2cccc(Cl)c2)C(C(=O)O)C1 (stereo not drawn),29,-28%,-3.6,4%,0,-2
COC(=O)c1sccc1NC(=O)Nc1ccc(OC)c(OC)c1,0,-5%,-4.1,7%,22,-2
O=C(COC(=O)c1ccc(Br)o1)Nc1cccc(S(=O)(=O)N2CCOCC2)c1,-9,-4%,0.4,-7%,-1,-6
O=C(CCC1CCCCC1)NCCN1CCOCC1,27,7%,-3.8,-2%[15.4 µM],-16,-15
O=C1C=C(O)c2cccc3cccc1c23,3,-1%,-6.3,u,1,-9
COc1cc(NC(=O)CCC2CCCC2)cc(-n2cnnn2)c1,-12,4%,-0.8,-1%,-15,-39
CCOC(=O)/C(C#N)=C\N(C)C,1,14%,-1.5,-8%,-15,4
CSc1sc(C(=O)O)c2c1C(=O)CCC2,2,1%,-0.2,22%,3,-6
CCN(C(=O)c1ccccc1Cl)c1ccccc1,3,-2%,-1.6,-16%,-5,-7
COCCNc1nnc(SCC(=O)NC(=O)c2ccccc2OC)s1,3,0%,-3.7,-36%[inhibitor],13,-5
CCN(CCCNC(=O)CNC(=O)c1nn(-c2ccc(OC)c(OC)c2)c(=O)c2ccccc12)c1ccccc1,-9,u,3.8,-14%,-10,6
CSc1nc(/C=C2\C=Nc3ccccc32)c(O)n1C,-16,-5%,-2.5,u,-7,-21
COc1ccc(NC(=O)CN2CCN(c3c(C)cc(C)cc3C)CC2)cc1,-2,-1%,-5.3,-9%,-10,-4
Cc1nc(-c2ccccc2)sc1C(=O)O,4,-6%,4.3,u,7,-9
O=C(NNC1=NS(=O)(=O)c2ccccc21)c1ccc([N+](=O)[O-])cc1,7,5%,-5.7,7%[15.4 µM],3,-6
Nc1ccccc1S(=O)(=O)C(F)F,2,2%,-3.0,-36%[inhibitor],x,-17
O=C(COc1ccccc1F)Nc1ccc2c(c1)CCC2,11,-1%,-2.3,-44%[inhibitor],-3,-4
CN(C(=O)CCN1C(=O)C(C)(C)Nc2ccccc21)c1ccccc1,-2,-7%,-3.5,-2%,1,-10
CC1C/C(=N/N2C(=O)CSC2=S)CC(C)(C)C1 (stereo not drawn),-19,-3%,-3.2,-19%,u,5
COc1ccc(/C=C/C(=O)OCC(=O)NC(C)CCc2ccccc2)cc1OC (stereo not drawn),0,6%,-2.3,5%,-20,-3
COc1ccccc1-n1nnnc1SCC(=O)Nc1ccccn1,2,8%,-1.8,-21%,2,-13
O=C(c1cccs1)N1CCN(S(=O)(=O)c2cccs2)CC1,6,11%,-1.6,21%[15.4 µM],9,-6
COc1cc(NC(=O)CCS(=O)(=O)c2ccc3c(c2)oc(=O)n3C)cc(OC)c1,2,-5%,4.9,25%,1,1
COc1ccc(N(C(=O)C(C)C)S(=O)(=O)c2cccc3cccnc23)cc1,9,2%,-0.8,6%,7,-2
CC(C(=O)N1CCCc2c1c(=O)oc1ccc(O)cc21)N1CCc2ccccc2C1 (stereo not drawn),-15,-14%,-0.2,-30%,-14,-13
COc1cccc(NC(=O)c2ccccc2SC)c1,0,3%,1.7,14%,3,-7
